NPYLR7 agonist – activates Aedes aegypti NPYLR7 receptor; HEK293T NPYLR7/Galpha15, GCaMP6s calcium fluorescence; activation, % at 10 µM; AID 1259423; actives 0.15% (n = 270,000); in the data active = activation above about 40%;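 also: 0% = vehicle and 100% = reference agonist at the receptor; some compounds past the cut are filed as inactive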
NPYLR7 agonist max-min – also measured in NPYLR7 agonist; calls as there; activation, %; measured here: Max-Min RFU normalised activation; some inactives read as strong as hits;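 span of the calcium signal over five minutes; 0% = vehicle and 100% = native peptide agonist; compound fluorescence can raise it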
* hit, by the source's call. Only part of the results is shown; rates above refer to the full screens.

SMILES	NPYLR7 agonist	NPYLR7 agonist max-min
COC(=O)C(C)Sc1ccc2nnc(CCNS(=O)(=O)c3ccccc3)n2n1 (stereo not given)	3.9	-5.0
CCN(CC)c1ccc2cc(-c3nnc(Nc4ccc(C)cc4)s3)c(=O)oc2c1	-7.5	-14.1
Cc1ccc(S(=O)(=O)NC(=O)C2(C)CCN2C(=O)C2(c3ccc(Cl)cc3)CC2)nc1 (stereo not given)	3.0	1.8
COc1ccc(NC(=O)CSc2ccc3nnc(-c4cccnc4)n3n2)cc1	-0.9	-2.3
CCOC(=O)[C@@H]1CCCC[C@@H]1NC(=O)c1ccc(-n2nc(-c3ccc(OC)cc3)cc2N)cc1	-7.0	-13.4
O=C(c1cc(N2CCN(Cc3ccccc3)CC2)nc2ccccc12)N1CC=CCC1	10.5	25.5
CCN(C(=O)c1cc(Br)c(Br)s1)C1CCS(=O)(=O)C1 (stereo not given)	0.0	-2.3
COc1ccc(CCNC(=O)c2ccccc2N2CCC(NC(=O)Cc3ccccc3)CC2)cc1OC	-3.3	-1.4
Cc1cc(F)c2c(c1)CCCN2CC(=O)Nc1cc(C(C)(C)C)no1	0.6	-1.4
CCCCN(CCO)Cc1nc(-c2cccc(OC)c2)no1	1.6	0.3
CC(C)C1CN(c2ccnc(N)n2)CCC(=O)N1CC1CC1 (stereo not given)	4.0	-3.4
CCOC(=O)CCn1c(=O)c2c(nc3n(CCCOC)c(C)cn23)n(C)c1=O	1.1	0.6
COc1ccccc1-c1cc2c(SCC(=O)Nc3cc(C)ccc3C)nccn2n1	-2.4	-6.7
CCOCCn1c(CN(Cc2ccccc2)Cc2ccccc2)nc2c1c(=O)[nH]c(=O)n2C	-6.0	-8.6
CCOc1ccc(-n2nnnc2-c2nc3ccccc3[nH]2)cc1	-10.3	-15.7
CC(C)CC(O)C1CCN(Cc2cn[nH]c2-c2ccc(F)cc2)CC1 (stereo not given)	5.1	0.7
CN(C)CCN(Cc1c(-c2ccc(F)cc2)noc1N1CCOCC1)C(=O)C1CCCC1	10.2	14.6
O=C1C2C3C=CC(C3)C2C(=O)N1c1ccc2c(c1)OCO2 (stereo not given)	-2.5	-4.0
CCc1[nH]n(-c2ccc(Cl)c(Cl)c2)c(=O)c1C1=C([n+]2cccc(C)c2)C(=O)N(c2ccccc2F)C1=O	-5.9	-4.9
CSc1nnc2c(n1)OC(c1cccc(C)n1)Nc1ccccc1-2 (stereo not given)	-3.0	-2.7
COc1ccc(-c2cnn(C(C)(C)C(=O)Nc3ccon3)c2)cc1OC	4.2	0.6
Cc1nc(C2(NC(=O)/C=C/c3cscn3)CCCC2)no1	-3.5	517.7
CC(C)CN(CC(=O)N(Cc1ccc2c(c1)OCO2)Cc1cccs1)C(=O)COCc1ccccc1	-2.2	2.9
CC(OC(=O)c1cccc(CS(C)(=O)=O)c1)c1ccc(F)cc1F (stereo not given)	-6.0	0.8
CN(C)CCN(Cc1cc(Cl)ccc1OS(=O)(=O)c1ccc(F)cc1)C(=O)c1ccco1	18.5	17.0
CC(C)(C)c1csc(CNC(=O)C2CCCC2)n1	3.8	-0.2
COc1cccc(C(=O)NCc2ccc(S(=O)(=O)N3CCCCC3)s2)c1OC	12.3	15.6
CC(C)(C)C1CCc2sc(C(=O)O)cc2C1 (stereo not given)	-3.2	-6.1
Cc1cc(Br)c(O)c(C(=O)NCc2ccc(Cn3ccccc3=O)cc2)c1	3.7	3.4
Oc1oc(-c2ccccc2)nc1C=Nc1ccc(Br)cn1	-8.1	-11.5
O=C(Nc1cccc(-c2cccc(-c3ccc(F)cc3)n2)c1)C1CCCCC1	24.9	26.6
Cc1c(C)n2c3c(=O)n(Cc4ccc(Cl)cc4)c(=O)n(C)c3nc2n1C	21.9	21.4
Cc1cc(C)c(/C=C/C(=O)NC2CCN(S(C)(=O)=O)CC2)cc1C	-2.2	-5.3
CC1=CC=CN2C(C)=NC(C(F)(F)F)(C(F)(F)F)N=C12	8.8	4.1
COc1ccccc1CC(=O)NC1CCCN(CCCc2ccccc2)C1 (stereo not given)	-1.3	-8.9
Nc1nc(SCC(=O)NC2CCCCC2)[nH]c(=O)c1NC(=O)c1ccc(F)cc1	-2.5	-6.4
COc1ccc(CN2CCN(Cc3ccc(Cl)cc3)CC2)c(F)c1F	3.9	0.9
Cc1cc(CNC(=O)C2CCCN2S(C)(=O)=O)c2[nH]c(C)c(C)c2c1 (stereo not given)	3.7	0.5
COc1cc(OC)nc(NC(=O)Cn2c(=O)c3ccccc3n3nc(C)cc23)n1	5.9	3.9
CN(C)c1cccc(C(NC(=O)/C(=C/c2ccccc2)c2ccccc2)c2ccc(S(C)(=O)=O)cc2)c1 (stereo not given)	2.9	-3.9
COc1ccc(NC(=O)c2ccc(-n3nc(-c4ccc(Cl)c(Cl)c4)cc3N)cc2)cn1	-1.6	-6.8
N#Cc1c(Cl)nsc1N1CCCC(c2nc3ccccc3[nH]2)C1 (stereo not given)	-6.6	-8.2
Cc1cc(=O)c(C(=O)NCCc2ccccc2)nn1-c1ccccc1	11.0	9.3
Cc1ccc(C(=O)N(CCC(C)C)CC(=O)N(Cc2cccn2Cc2ccccc2)C2CCCCC2)cc1[N+](=O)[O-]	-3.1	8.8
O=C1O[C@H]([C@@H](O)CO)C(O)C1O (stereo not given in full)	3.5	-4.9
O=C(O)c1[nH]ncc1I	-0.7	-2.8
O=C1CN(c2ccc(C(=O)N3CCCC(CCc4ccccc4)C3)cc2)C(=O)N1 (stereo not given)	7.6	6.5
Cn1cc(CN2CCc3[nH]nc(C4COc5ccccc5O4)c3C2)cn1 (stereo not given)	0.3	-0.9
O=C1NC2(CCN(Cc3cccc(F)c3F)CC2)Nc2ccccc21	15.5	28.4
CCn1cc(NC(=O)NCCOC)c2ccccc21	-5.0	-5.0
CCC(C(=O)N(Cc1cc(NC(=O)COC)ccc1N(C)C)CC1CCCO1)c1ccccc1 (stereo not given)	8.8	19.6
C#CCOCC(O)CN(Cc1ccccc1C)C(C)CC (stereo not given)	10.2	23.4
CCOc1ccc(Nc2nc(N3CCN(C)CC3)nc3c2cnn3-c2ccccc2)cc1	-0.2	-1.3
O=c1c2c(nc(SCc3ccccc3)n1CCc1ccccc1)CCS2	6.6	3.7
Cc1nc(-c2ccccc2)n(CN2CCOC(C)(C)C2)n1	-1.2	-1.6
CC(=O)N(CCN(C)C)Cc1cc(NC(=O)C(C)C)ccc1N(C)C	-5.3	-1.0
CSC1CCC(N(C)Cc2csc(C)n2)C1 (stereo not given)	-4.7	-9.5
CCOC(=O)c1nn(-c2ccc(F)cc2)c(=O)cc1N1CCc2ccccc2C1	7.5	1.3
Cn1c(=O)[nH]c2cc(C(=O)N(Cc3ccccc3C(F)(F)F)C3CC3)ccc21	10.0	6.5
CCCC(=O)N1CCCC1C(=O)OCc1nc(C)c(C)o1 (stereo not given)	7.8	4.8

Individual results from the list:
Cc1nc(-c2ccccc2)n(CN2CCOC(C)(C)C2)n1 in NPYLR7 agonist max-min = -1.6
Cn1cc(CN2CCc3[nH]nc(C4COc5ccccc5O4)c3C2)cn1 (stereo not given) in NPYLR7 agonist max-min = -0.9

Additional compounds follow.
SMILES	NPYLR7 agonist	NPYLR7 agonist max-min
C=c1ccccc1=C1N=C(c2ccc(NC(=O)c3cccc(Cl)c3)cc2)NO1	-3.1	-8.7
CCCc1nc(N2CCN(S(=O)(=O)c3ccc(F)cc3)CC2)c2c(-c3ccccc3)noc2n1	15.4	4.8
O=C(c1ccc(F)cc1)N1CCCN(c2nc(Cc3ccccc3)nc3onc(-c4cccc(Oc5ccccc5)c4)c23)CC1	15.9	4.3
C#CCOCC(O)CN(Cc1ccco1)Cc1c(-c2ccccc2)nn(C)c1Oc1cccc(F)c1 (stereo not given)	3.9	4.7
C/C=C\C(=O)NCc1ccc2c(c1)cc(C)n2C	7.4	5.6
O=C(Nc1ccc(F)cc1)c1csc(CSc2nnc(Cc3ccccc3)n2-c2cccc(Cl)c2)n1	-4.1	4.5
Cc1noc(-c2ccccc2Cl)c1C(=O)NCCc1ccncc1	6.3	17.7
COCCn1cc(C(=O)N2CCN(Cc3ccccn3)CC2)c2nn(-c3ccccc3)c(=O)c-2c1	-3.3	-8.2
CC1(C(=O)Nc2cccc(C#N)c2)CCN1C(=O)C/C=C/c1ccccc1 (stereo not given)	15.3	15.8
CCN(CC)c1ccc2cc(-c3nnc(Nc4cc([N+](=O)[O-])ccc4F)s3)c(=O)oc2c1	3.6	7.9
C=C(C)CNC(=O)c1cc(-c2cc(OC)c(OC)c(OC)c2)nc2ccccc12	4.5	3.9
COCCNC(=O)Cn1nc2c(c1NC(=O)c1c[nH]c3ccccc13)CSC2	-5.3	3.0
CN(Cc1csc(-c2ccccc2)n1)C(=O)c1cc2n(n1)CCCNC2	3.1	-5.1
CCN(Cc1cc(F)ccc1-n1cccn1)C1CCS(=O)(=O)C1 (stereo not given)	5.2	0.8
O=C(COc1ccc(F)cc1F)c1ccc2c(c1)N(Cc1ccc(C(=O)NCC3CC3)o1)C(=O)CO2	3.1	1.5
O=C(c1ccc(CSc2cc(Cl)ccc2Cl)cc1)N1C2CCC1CC(Oc1cccc(C(F)(F)F)c1)C2 (stereo not given)	-11.1	-12.5
CC1(C(=O)NCc2cccs2)CCN1Cc1csc2ccccc12 (stereo not given)	16.1	9.6
CC(C(=O)NC(=O)NC(C)(C)C)N(C)Cc1cc(Br)cs1 (stereo not given)	-0.3	-3.0
c1csc(-c2csc3nc(CN4CCOCC4)nc(N4CCCC4)c23)c1	7.2	4.0
CC1=NN(c2nc(N)nc(Cn3nc(C)cc3C)n2)C(C)(C)C1	-0.3	0.5
Cc1cccc(CNC(=O)c2sc3cc(F)ccc3c2Cl)c1	24.0	26.9
Cc1nc(C)c(-c2ccc(SCC(=O)NCc3ccc(F)cc3)nn2)s1	-20.7	-24.8
O=C(c1cnc2nc(SCc3ccccc3)nn2c1)c1cc(Br)ccc1O	-13.2	-6.6
CN(Cc1ccco1)C(=O)c1ccccc1N1CCC(NS(=O)(=O)c2ccc(F)cc2)CC1	-3.1	-1.3
O=C(Nc1ccccc1Oc1ccccc1)[C@@H]1O[C@H](CO)[C@H](O)[C@H](O)[C@H]1O	5.9	3.9
CCOC(=O)c1sc2nc(C)nc(NCCCOC)c2c1C	-0.1	1.3
Nc1nccc(N2CC[C@@H](N3CCCCCC3)[C@H](O)C2)n1	1.6	-1.1
COc1ccc(C(=O)NC2CCC(NC(=O)[C@H]3CCCN3C(=O)C(C)(C)CCl)CC2)cc1 (stereo not given in full)	28.4	29.4
COc1cc(Br)cc2c1OC(c1ccc3c(c1)OCO3)C([N+](=O)[O-])=C2 (stereo not given)	8.8	7.5
COC(=O)C1=C(C)NC2=C(C(=O)CC(c3ccccc3)C2)C1c1ccc(OCc2ccccc2)cc1 (stereo not given)	1.7	3.3
CCn1cc(C(=O)N2CCC(Oc3ccc(C(=O)NCCc4ccccc4)cc3)CC2)cn1	5.3	-2.1
CN(Cc1ccsc1)C(=O)c1ccc(OC2CCN(Cc3ccccn3)CC2)cc1	-0.3	-2.3
Cc1cccc(C)c1NC(=O)c1cccc(CN(C)C(C)C(=O)N(C)C)c1 (stereo not given)	-3.0	-4.2
CC(NC(=O)Nc1ccc(N2CCOCC2)nc1)c1cccc(OC(F)F)c1 (stereo not given)	0.2	0.8
CC1(C)CC(=O)C(C(c2cc3c(cc2[N+](=O)[O-])OCO3)C2C(=O)CC(C)(C)CC2=O)C(=O)C1	1.9	4.3
C=CCc1c(O)ccc2[nH]cc(S(=O)(=O)c3ccc(C)cc3)c12	-14.3	-22.2
O=C(c1cncc(Cl)c1)N1CCC(N2CCCC(C(=O)N3CCCC3)C2)CC1 (stereo not given)	-6.1	-8.5
O=C(NCCn1nc(-c2cccnc2)ccc1=O)Nc1ccc2c(c1)OCO2	8.0	3.5
CC(=O)N1CCC(C(NC(=O)c2cccs2)C(=O)N2CCOCC2)CC1 (stereo not given)	-8.9	-8.0
CCc1ncc2c(n1)CN(C(=O)c1c(C)[nH]c3c1C(=O)CCC3)C2	-1.4	-6.2
Cc1ccc(CN)c(OC(C)CC(C)C)c1 (stereo not given)	-3.0	-4.8
O=[N+]([O-])c1ccc(Nc2ccccc2)c([N+](=O)[O-])c1	1.4	7.6
O=C(NC(=S)Nc1ccccn1)c1ccccc1	-5.8	-9.3
CC(NC(=O)c1cnn(-c2ccccc2F)c1)c1ccc2c(c1)CC(=O)N2 (stereo not given)	6.7	4.2
O=C(CN(Cc1ccccc1)c1nc(Cc2ccc(Cl)cc2)ns1)N1CCN(c2cccc(Cl)c2)CC1	-6.4	-9.0
O=C(CCc1ccccc1)N1CCc2ccccc2C1c1ccccc1Cl (stereo not given)	-2.3	4.3
CCc1nc(N)sc1C(=O)N1CCC(O)(c2ccccc2C)C1 (stereo not given)	9.3	5.5
Cc1ccc(-c2cccc(C(=O)NCCSc3nnnn3C)c2)o1	3.1	4.2
CN(C(=O)C1CCN(S(C)(=O)=O)CC1)c1ccccc1	-6.0	-8.4
CC(NC(=O)c1cnn2ccn(C)c12)c1cn2ncsc2n1 (stereo not given)	3.0	2.0
CCC(C(=O)O)n1ccsc1=NC(=O)c1ccc(Cl)c(Cl)c1 (stereo not given)	6.1	-0.2

Of the compounds above, 9 have two or more sulfur atoms:
SMILES	NPYLR7 agonist	NPYLR7 agonist max-min
COC(=O)C(C)Sc1ccc2nnc(CCNS(=O)(=O)c3ccccc3)n2n1 (stereo not given)	3.9	-5.0
CCN(C(=O)c1cc(Br)c(Br)s1)C1CCS(=O)(=O)C1 (stereo not given)	0.0	-2.3
COc1cccc(C(=O)NCc2ccc(S(=O)(=O)N3CCCCC3)s2)c1OC	12.3	15.6
O=c1c2c(nc(SCc3ccccc3)n1CCc1ccccc1)CCS2	6.6	3.7
CSC1CCC(N(C)Cc2csc(C)n2)C1 (stereo not given)	-4.7	-9.5
O=C(Nc1ccc(F)cc1)c1csc(CSc2nnc(Cc3ccccc3)n2-c2cccc(Cl)c2)n1	-4.1	4.5
CC1(C(=O)NCc2cccs2)CCN1Cc1csc2ccccc12 (stereo not given)	16.1	9.6
c1csc(-c2csc3nc(CN4CCOCC4)nc(N4CCCC4)c23)c1	7.2	4.0
Cc1nc(C)c(-c2ccc(SCC(=O)NCc3ccc(F)cc3)nn2)s1	-20.7	-24.8

Screening data (PubChem BioAssay)
